Mtb MbtI inh – MbtI salicylate synthase inhibition. P9WFX0. purified MbtI enzyme, fluorescence intensity read-out. inhibition, %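 (about 17 µg/mL by stock and volumes)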. 100,000 tested, 0.89% active;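 active means above 50% in both replicates, above 80% if mildly self-fluorescent; inactive means the rest, strongly fluorescent compounds included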;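 further: 0% = mean of negative and 100% = mean of positive controls; one replicate is shown; some compounds called inactive have numbers as strong as hits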
Target sequence (P9WFX0 whole entry, looked up): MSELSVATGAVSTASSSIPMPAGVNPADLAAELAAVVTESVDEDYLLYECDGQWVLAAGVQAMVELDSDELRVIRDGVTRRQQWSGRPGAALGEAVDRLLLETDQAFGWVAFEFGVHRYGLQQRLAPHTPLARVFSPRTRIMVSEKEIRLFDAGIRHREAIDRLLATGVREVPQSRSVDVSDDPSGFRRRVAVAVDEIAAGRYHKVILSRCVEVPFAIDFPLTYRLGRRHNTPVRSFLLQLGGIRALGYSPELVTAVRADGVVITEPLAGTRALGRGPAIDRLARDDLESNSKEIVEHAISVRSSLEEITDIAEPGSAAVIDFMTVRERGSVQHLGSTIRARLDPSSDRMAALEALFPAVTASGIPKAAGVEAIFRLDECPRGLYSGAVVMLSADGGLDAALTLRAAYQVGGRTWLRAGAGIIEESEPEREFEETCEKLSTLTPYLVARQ
* marks the source's active call; other numbers are inactive results. An excerpt; the hit share may differ from the screen's.

For CC(=O)NC(O)C(=O)c1cccs1 (stereo unspecified) the results were Mtb MbtI inh -2.
O=C1NCC(COc2cccc3ccccc23)O1 (stereo unspecified) was read as Mtb MbtI inh 3.
For Cc1ccc(OCCn2cc(Br)c(=O)[nH]c2=O)cc1 the results were Mtb MbtI inh -7.
`CCN(C(=O)c1cc2c(=O)oc3ccccc3c2s1)c1ccccc1` gave Mtb MbtI inh 0.
`CCOc1ccc(C2CNC(=O)C2C(=O)OC)cc1OCC` (stereo unspecified) gave Mtb MbtI inh -8.
COc1cccc(-c2nnc(NC(=O)c3ccc(S(=O)(=O)N(C)C)cc3)o2)c1 was read as Mtb MbtI inh -2.
`Cc1cc(C)cc(OCc2ccc(C(=O)NC3CCOC3=O)o2)c1` (stereo unspecified) gave Mtb MbtI inh 2.
Clc1ccc(CCNCc2ccncc2)cc1 was read as Mtb MbtI inh -9.
Screening O=C(O)Cn1cnc(-c2ccc(F)cc2)c1 returned Mtb MbtI inh -8.
Screening COc1ccc(-n2nc(C(=O)N3CCCc4ccccc43)c3ccccc3c2=O)cc1 returned Mtb MbtI inh 0.
For CC(C)C(NC(=O)C1CCCCC1)C(=O)NCc1cccnc1 (stereo unspecified) the results were Mtb MbtI inh -6.
O=C(O)CNc1nc(-c2ccccc2)c2cc(Br)ccc2n1 was read as Mtb MbtI inh -13.
Cc1nc(C(=O)Nc2ccc3nsnc3c2)cc2c1[nH]c1ccccc12 was read as Mtb MbtI inh -7.
`O=c1[nH]c2ccc(NCc3ccc(F)cc3)cc2[nH]1` gave Mtb MbtI inh -20.
For c1ccc(NC2=NCCC2)cc1 the results were Mtb MbtI inh -10.
`CCOc1ccc(NC(=O)C2C3C=CC4(O3)C2C(=O)N(C(C)C)C4C(=O)NC2CCCCC2C)cc1` (stereo unspecified) gave Mtb MbtI inh -1.
`CCn1nc(C)c(CCC(=O)O)c1C` gave Mtb MbtI inh -14.
`Cc1[nH]c(C)c2c(=O)n(-c3ccccc3)ncc12` gave Mtb MbtI inh 0.
`CC(C)CN(C(=O)Cn1nnnc1N)C1(C(=O)Nc2ccccc2)CCCCC1` gave Mtb MbtI inh -8.
For CSc1ccccc1C(=O)NCCOc1ccccc1C(C)C the results were Mtb MbtI inh -6.
Screening Cc1cc(C)cc(C(=O)N(CCc2ccccc2)C2CC3CCC(C2)N3C)c1 (stereo unspecified) returned Mtb MbtI inh 3.
For COc1ccc(C(Nc2ccccn2)c2oc(CO)cc(=O)c2O)cc1 (stereo unspecified) the results were Mtb MbtI inh 101.
`Nc1nonc1C(=O)OCC(=O)Nc1ccccc1` gave Mtb MbtI inh 5.
For Cc1cccc(N2CCN(CCN)CC2)c1C the results were Mtb MbtI inh 1.
For Nc1nnnn1CC(=O)NC1(C(=O)Nc2ccccc2)CCCCC1 the results were Mtb MbtI inh -2.
Screening O=C(CCc1ccccc1)OCCN1CCOCC1 returned Mtb MbtI inh -3.
`N#CCCn1c2c(c3ccccc31)CCc1ccccc1-2` gave Mtb MbtI inh 39.
For CC(C)N1CC2(c3ccccc3)CN(C(C)C)CC(c3ccccc3)(C1)C2=O the results were Mtb MbtI inh -16.
`CCOC(=O)N1CCC(C(N)=O)CC1` gave Mtb MbtI inh -14.
For CSc1nc(C)c2cc(C)oc2n1 the results were Mtb MbtI inh -6.
For O=C(O)C1CC(=O)N(c2ccccc2)C1 (stereo unspecified) the results were Mtb MbtI inh -12.
Screening Cc1noc(/C=C/NCc2cccnc2)c1S(=O)(=O)N(C)CC(=O)N1CCc2ccccc21 returned Mtb MbtI inh -15.
Screening Cc1ccc(C(=O)OCCN2CCCCC2)cc1 returned Mtb MbtI inh -22.
For O=C(O)Cn1ncc2c1-c1ccoc1CC2 the results were Mtb MbtI inh 22.
CCOC(=O)C1C(=O)Oc2ccc(Br)cc2C1C1(C(=O)OC)CCCC1 (stereo unspecified) was read as Mtb MbtI inh -11.
`O=C(NCCN1CCN(c2ccccc2)CC1)c1ccccc1F` gave Mtb MbtI inh -11.
CCOC(=O)C1CCN(C(=O)CSCc2ccccc2)CC1 was read as Mtb MbtI inh -5.
For O=C(NS(=O)(=O)c1cccs1)c1ccccc1Cl the results were Mtb MbtI inh -16.
For Cc1nn(C(=O)c2ccoc2C)c(N)c1-c1ccccc1 the results were Mtb MbtI inh -1.
`COC(=O)c1ccc(COc2ccc(-c3nn[nH]n3)cc2)cc1` gave Mtb MbtI inh -10.
Screening O=C(Nc1ccc(Cl)cc1)OCCn1nnnc1C(c1ccccc1)N1CCOCC1 (stereo unspecified) returned Mtb MbtI inh -15.
For O=C(O)CCC(=O)Nc1ccccc1 the results were Mtb MbtI inh 4.
CCCN1CCC(N2CCCC(C(=O)N3CCCCCC3)C2)CC1 (stereo unspecified) was read as Mtb MbtI inh -18.
For CCCCn1c(=NC(=O)c2ccccc2)c(C(=O)OCC)cc2c(=O)n3ccccc3nc21 the results were Mtb MbtI inh 18.
CC1CN(c2ccc(Cl)nn2)CC(C)O1 (stereo unspecified) was read as Mtb MbtI inh -14.
O=C(O)c1cccc2c(CN3CCN(C(c4ccccc4)c4ccccc4)CC3)c[nH]c12 was read as Mtb MbtI inh -2.
For O=C(O)COc1ccc2c(c1)C(=O)CC1(CCCCC1)O2 the results were Mtb MbtI inh -7.
Screening COc1ccc(C2NC3=C(CCC3)C3(C#N)C(OC)(OC)N=C(N)C23C#N)cc1 (stereo unspecified) returned Mtb MbtI inh -1.
For COC(=O)c1c[nH]n2c(NC3CCCCC3)c(-c3cccs3)nc12 the results were Mtb MbtI inh -3.
For O=C(NC1CCCCC1)C1CCN(C(=O)c2ccccc2)CC1 the results were Mtb MbtI inh -5.
For CN1C(=O)c2ccc(S(=O)(=O)c3ccc(C(=O)O)cc3)cc2C1=O the results were Mtb MbtI inh -2.
Screening Cn1nnnc1SCC(=O)NC(C(=O)O)(c1ccccc1)c1ccccc1 returned Mtb MbtI inh -5.
`Nc1ccc(Cc2nc3ccc(C(=O)O)cc3[nH]2)cc1` gave Mtb MbtI inh -12.
Screening Cc1oc2cc3c(C(=O)OCCN(C)C)c(C)oc3cc2c1C(=O)OCCN(C)C returned Mtb MbtI inh -6.
`O=C1NS(=O)(=O)C(c2ccccc2)=C1O` gave Mtb MbtI inh 1.
Cc1ccc(N2C(=O)c3ccc(C(=O)NCCN4CCOCC4)cc3C2=O)cc1 was read as Mtb MbtI inh -15.
`COC(=O)c1cn(NC(=O)C2CCCO2)c(=O)c2ccccc12` (stereo unspecified) gave Mtb MbtI inh -3.
Screening Oc1ccc(-c2ccccc2)cc1 returned Mtb MbtI inh -8.
For Cc1ccc(Cc2cnc(CN3CCCCC3)c(O)c2)cc1 the results were Mtb MbtI inh -8.
CCOc1ccc(CNC(=O)CCSCc2ccccc2Cl)cc1OC was read as Mtb MbtI inh -9.
Screening NC1=Nc2cc(C(=O)O)ccc2Sc2ccccc21 returned Mtb MbtI inh -13.
Screening Cc1ccn(CO)n1 returned Mtb MbtI inh -3.
O=c1c2ccccc2n2nncc2n1Cc1ccccc1F was read as Mtb MbtI inh -13.
`CCn1cc(C(=O)NCCC(C)C)c2cc(OC)c(OC)cc2c1=O` gave Mtb MbtI inh 2.
Screening CCCc1cc2c(cc1NC(=O)c1ccccc1SC)OCO2 returned Mtb MbtI inh -2.
For O=C1C2CCCC1C(N1CCCCC1)CC2 (stereo unspecified) the results were Mtb MbtI inh -18.
CN1C(=O)CCC1(C(=O)O)c1ccccc1 (stereo unspecified) was read as Mtb MbtI inh -3.
C=CCn1sc(=N)c(C#N)c1N was read as Mtb MbtI inh 11.
CCCCN1CC2CC=C(Cl)CC2C1 (stereo unspecified) was read as Mtb MbtI inh -14.
Screening COc1ccc(NC(=O)C2(N(C(=O)c3ccc(-n4cnnn4)cc3)c3ccc(OC)cc3)CCCCC2)cc1 returned Mtb MbtI inh -18.
For O=c1n(-c2ccccc2)c(=O)n(Cc2ccccn2)n1Cc1ccccn1 the results were Mtb MbtI inh -2.
`Cc1cc(C)n(CC(O)COc2ccccc2C(=O)Nc2ccccc2)n1` (stereo unspecified) gave Mtb MbtI inh 2.
Cc1ccc(C(N)CCc2ccco2)cc1C (stereo unspecified) was read as Mtb MbtI inh -3.
For CCc1nnc(SCC(=O)OC)c2cc3sccc3n12 the results were Mtb MbtI inh -14.
`Cc1cc(C)nc(SCCN(C)C)n1` gave Mtb MbtI inh -5.
`COC(=O)c1ccc(CC#N)o1` gave Mtb MbtI inh -5.
`CCCOC1=NOC2C3CCC(C3)C12` (stereo unspecified) gave Mtb MbtI inh -8.
CC(C)=CCCC1(C)OC(=O)NC1(C)O (stereo unspecified) was read as Mtb MbtI inh 0.
Screening Cc1ccc(C(=O)O)cc1N1CCCC1=O returned Mtb MbtI inh 1.
`COc1ccc2cccc(O)c2n1` gave Mtb MbtI inh 0.
`N#Cc1cc2c(nc1SCC(O)CNc1ccc(Cl)cc1)CCCC2` (stereo unspecified) gave Mtb MbtI inh -3.
Screening Cc1ccccc1-c1nc2cc(NC(=O)c3cccs3)ccc2o1 returned Mtb MbtI inh 6.
`COc1ccc(C2C(C(=O)NC3CCCCC3)c3ccccc3C(=O)N2c2ccc(OC)cc2)cc1` (stereo unspecified) gave Mtb MbtI inh 2.
For CC(C)(Cc1nc2ccccc2[nH]1)C(=O)O the results were Mtb MbtI inh -7.
For Cc1nn(C(C)(C)C)c(OC(=O)c2ccccc2)c1Sc1ccccc1 the results were Mtb MbtI inh 11.
Screening NC(=O)C1CCCCN1C(=S)NC1CCCCC1 (stereo unspecified) returned Mtb MbtI inh 42.
`CCOC(=O)N1CCC(NC(=O)CNC(=O)c2ccco2)CC1` gave Mtb MbtI inh -16.
Screening COc1ccc(CCNC(=O)CCCc2nnc3n(C)c(=O)c4sccc4n23)cc1OC returned Mtb MbtI inh -14.
Screening CCOC(=O)N1CCC(C(=O)O)CC1 returned Mtb MbtI inh -16.
Screening C=CCn1c(Cc2ccccc2)nc2c(cnn2-c2ccccc2)c1=O returned Mtb MbtI inh 1.
O=C(NCCO)c1ccc(/C=N/O)nc1 was read as Mtb MbtI inh -4.
COc1ccc2cc(C#N)c(Nc3cccc(F)c3)nc2c1 was read as Mtb MbtI inh 14.
Screening Cc1csc(=S)n1-c1ccccc1 returned Mtb MbtI inh 16.
COC(=O)C1(C(=O)OC)C(c2ccc(Cl)cc2)C1(C#N)C#N (stereo unspecified) was read as Mtb MbtI inh -3.
Screening c1ccc(C2CCCCS2)cc1 (stereo unspecified) returned Mtb MbtI inh -4.
For Cc1ccc(CNC(=O)C2CSC(c3cccs3)=N2)cc1 (stereo unspecified) the results were Mtb MbtI inh -3.
`O=c1[nH]cc(N2CCCCC2)c(=O)[nH]1` gave Mtb MbtI inh -15.
OC(c1ccccc1)C(CN1CCCCC1)CN1CCCCC1 (stereo unspecified) was read as Mtb MbtI inh -11.
Screening O=C1Nc2ccccc2C(O)(C(=O)NC2CC2)N1c1ccccc1 (stereo unspecified) returned Mtb MbtI inh -2.
O=C(COc1ccccc1Br)N1CCCCCC1 was read as Mtb MbtI inh -10.
Screening CCOC(=O)CC(=O)NC1(Cc2ccc(O)cc2)CCCCC1 returned Mtb MbtI inh -8.
Screening O=C1OCCC1(CCO)c1ccccc1 (stereo unspecified) returned Mtb MbtI inh -11.
CC1C(=O)CCN(Cc2ccccc2)C1C (stereo unspecified) was read as Mtb MbtI inh -13.
`O=C(O)CC(C(=O)O)c1c[nH]c2ccccc12` (stereo unspecified) gave Mtb MbtI inh -28.
Screening CCOc1ccc(CN(C)CCc2ccccn2)cc1 returned Mtb MbtI inh -5.
Cc1ccc(CS(=O)(=O)CCC(=O)O)cc1 was read as Mtb MbtI inh -14.
COc1ccc2ccccc2c1CN1CCN(C(=O)c2ccncc2)CC1 was read as Mtb MbtI inh 7.
CC1(C)CC2(CCO1)OC(=O)CC2C(=O)Nc1ccc(Cl)c(Cl)c1 (stereo unspecified) was read as Mtb MbtI inh -7.
For CCc1nc2ccc(Oc3ccc4nc(CC)[nH]c4c3)cc2[nH]1 the results were Mtb MbtI inh -8.
COc1ccc2oc(C)c(C(=O)Cn3ccnc3)c2c1 was read as Mtb MbtI inh -5.
For C=CCOc1ccc(-c2nc3c(sc(=S)n3CC=C)c(=O)[nH]2)cc1OC the results were Mtb MbtI inh -8.

High-throughput results as filed in PubChem BioAssay.
